# Source: PubChem (National Center for Advancing Translational Sciences (NCATS))
# gsp agonist: qHTS for Agonist of gsp, the Etiologic Mutation Responsible for Fibrous Dysplasia/McCune-Albright Syndrome: qHTS. gsp mutant cells, cAMP HTRF, 30 min; control for the full effect not named in the record. Potency, µM (doses to about 76.9 µM), for inactives: top-dose activation (cAMP increase), actives largely listed as activators. 0.13% of 340,000 active; active = well fitted activation curve with a large enough effect; inconclusive = small, poorly fitted or top-dose-only effect, or another doubt; inactive = no such curve, though single readings can be large or run the other way; cell line not stated here;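 note: phosphodiesterase inhibitor Ro 20-1724 added with compounds to block cAMP breakdown; potency is the fitted concentration of half-maximal effect; nearly all actives have a fitted effect of over 60% in size; about a fifth of the inactives were tested at one dose only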
#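 Cells in DMEM/10% FBS with G418 were pretreated with compounds in DMSO plus […] (300 uM stock) for 30 min at 37C. cAMP was measured by HTRF (cAMP-d2 plus anti-cAMP antibody-K) after 30 min at room temperature.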
# D2 ag: Beta-Arrestin HTS for Positive Allosteric Modulators of the Human D2 Dopamine Receptor: Agonists | D(2) dopamine receptor (Homo sapiens), P14416 | DiscoveRx PathHunter D2 beta-arrestin, luminescence, 90 min; 100% = 57 uM dopamine signal | activation, % (concentration not given with the values) | 0.084% of 360,000 active; in the data active = activation above about 40%; inconclusive = about 15% to 40%; inactive = below about 15%; note: compound concentration not given in the record; the text of the record calls up to 30% inactive
#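 DiscoveRx PathHunter D2 beta-arrestin cells (2,100/well) attached overnight, then compound-stimulated 90 min at 37 C in HBSS/10 mM HEPES/0.1% Tween-20 buffer; beta-galactosidase complementation read by luminescence after 1 h at ambient temperature. Dopamine 57 uM final (EC100) as control.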
# CtBP-E1A inh: qHTS Assay for Inhibitors of the CtBP/E1A Interaction; CtBP / adenovirus E1A interaction (AlphaScreen); AlphaScreen GST-E1A/His-CtBP binding, 1536-well; stronger effect = lower value; control for the full effect not named in the record; activity change, % (no concentration beside the values); 0.49% of 340,000 active; AID 651724, 2012; in the data active means activity change below about -65%; inconclusive means about -30% to -65%; inactive means above about -30%; note: % is set by controls: 0 for no effect and ±100 for the full control effect; compound concentration not given in the record
#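 Homogeneous bead-based format: GST-tagged E1A captured on glutathione donor beads, His-tagged CtBP on nickel acceptor beads; compounds precede bead addition by 2 h at 37 °C.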
# gsp antag: qHTS for Antagonists of gsp, the Etiologic Mutation Responsible for Fibrous Dysplasia/McCune-Albright Syndrome: qHTS; gsp-mutant cells, cAMP HTRF, 30 min; control for the full effect not named in the record; Potency, µM (doses to about 76.9 µM), for the others: at the top dose activity change, negative = inhibition, actives largely listed as inhibitors; 0.4% of 340,000 active; AID 624288, 2012; active = falling curve of any shape with a large fitted effect; inconclusive = falling curve, mostly with a smaller effect; inactive = flat or rising curve; cell line not stated here;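 note: intracellular cAMP measured with PDE inhibitor Ro 20-1724 present during compound exposure; potency is the fitted concentration of half-maximal effect; % is set by controls: 0 for no effect and ±100 for the full control effect; nearly all actives have a fitted effect of over 65% in size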
#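 Measurement of cellular cAMP by homogeneous time-resolved fluorescence following a 30 min compound exposure at 37C. The PDE inhibitor […] was present throughout; the assay buffer was DPBS with 0.05% BSA and 0.005% Tween 20.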
# Six1-Eya2 inh: qHTS Assay for Inhibitors of the Six1/Eya2 Interaction | AlphaScreen GST-Six1/His-Eya2 binding, biochemical; stronger effect = lower value; control for the full effect not named in the record | activity change, % (test concentration not listed) | 0.56% of 360,000 active | AID 651725, 2012; in the data active = activity change below about -65%; inconclusive = about -30% to -65%; inactive = above about -30%; note: % is set by controls: 0 for no effect and ±100 for the full control effect; compound concentration not given in the record
# Target sequence (O00167 whole entry, looked up): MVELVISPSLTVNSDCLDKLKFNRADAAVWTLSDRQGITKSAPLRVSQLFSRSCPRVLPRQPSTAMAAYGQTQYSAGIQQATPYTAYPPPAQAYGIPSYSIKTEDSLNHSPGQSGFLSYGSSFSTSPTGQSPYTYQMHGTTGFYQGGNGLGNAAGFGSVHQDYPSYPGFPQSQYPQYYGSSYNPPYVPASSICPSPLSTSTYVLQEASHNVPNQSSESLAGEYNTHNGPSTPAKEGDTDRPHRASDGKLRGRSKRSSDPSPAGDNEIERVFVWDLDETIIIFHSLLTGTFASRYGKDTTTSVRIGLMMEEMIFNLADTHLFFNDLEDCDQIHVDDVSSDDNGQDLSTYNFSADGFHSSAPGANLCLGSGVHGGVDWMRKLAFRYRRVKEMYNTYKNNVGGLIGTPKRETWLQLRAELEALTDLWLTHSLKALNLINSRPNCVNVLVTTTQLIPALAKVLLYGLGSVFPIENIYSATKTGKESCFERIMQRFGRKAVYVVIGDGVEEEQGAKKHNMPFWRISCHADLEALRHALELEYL
# Target sequence (Q15475 whole entry, looked up): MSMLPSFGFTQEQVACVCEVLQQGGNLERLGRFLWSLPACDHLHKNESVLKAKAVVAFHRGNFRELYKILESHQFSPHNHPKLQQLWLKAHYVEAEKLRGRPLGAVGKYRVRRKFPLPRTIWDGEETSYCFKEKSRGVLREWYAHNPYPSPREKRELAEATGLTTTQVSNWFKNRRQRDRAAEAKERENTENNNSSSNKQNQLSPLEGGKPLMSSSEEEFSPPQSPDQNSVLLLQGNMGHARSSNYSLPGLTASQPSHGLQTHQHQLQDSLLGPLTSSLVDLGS
#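 Compounds are tested against tagged Six1 and Eya2 proteins bridged by glutathione donor and nickel acceptor beads; after a one-hour incubation at 37 °C without light, AlphaScreen emission is recorded.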
# D2 PAM: Beta-Arrestin HTS for Positive Allosteric Modulators of the Human D2 Dopamine Receptor: Potentiators. DiscoveRx D2 beta-arrestin cells, luminescence, 90 min; 100% = 57 uM dopamine signal. AID 624464, 2012. potentiation, % (no concentration beside the values). D(2) dopamine receptor (Homo sapiens), P14416. 0.23% of 360,000 active; active = potentiation of 50% or more; inconclusive = 30% to 50%; inactive = 30% or less;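 note: compound concentration not given in the record; tested on top of an EC20 dose of dopamine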
#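 PathHunter D2 cells, attached overnight at 37 deg C, received compound in DMSO plus dopamine at EC20 (50 nM final) for 90 min at 37 deg C. Beta-arrestin recruitment was read as luminescence after 1 h with detection reagent at ambient temperature.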
# * = called active by the depositor; ? = inconclusive; / = not tested or not shown; [ ] = remark or other dose.
canonical_smiles	gsp agonist	D2 ag	CtBP-E1A inh	gsp antag	Six1-Eya2 inh	D2 PAM
CCC1(C)Cc2ccccc2-c2nc(NN)[nH]c(=O)c21 (stereo not given)	-13%	-14	0	?	1	-8
Cc1cccc(N2CCN(S(=O)(=O)c3ccc4c(c3)NC(=O)C(C)S4)CC2)c1C (stereo not given)	26%	11	-2	-11%	-3	-13
CCOC(=O)c1ccc(N2C(=O)C3CC=CCC3C2=O)cc1 (stereo not given)	-9%	1.6	4	4%	2	1
O=C(OCC(=O)N1CCN(C(=O)c2ccco2)CC1)c1cc(-c2ccc(Cl)c(Cl)c2Cl)nc2ccccc12	18%	-2.2	5	?	-7	-6
COc1cccc(N2CCN(C3CC(=O)N(c4ccc(Cl)cc4)C3=O)CC2)c1 (stereo not given)	26%	-0.1	-3	-8%	-9	5
CC(=NCCN1CCNCC1)C1=C(O)CC(C)(C)CC1=O	-5%	0.8	46	13%	21	0
Cc1cccc(C)c1NC(=O)CN(C)C(=O)c1ccccc1SCC(=O)N1CCCC1	16%	-1.9	25	4%	3	-18
Cn1c(=O)c2c(nc(CN3CCN(c4ccc(F)cc4)CC3)n2Cc2ccccc2F)n(C)c1=O	-7%	0.4	-7	7%	-1	-10
CCOc1ccc(OCC)c(-c2c(=O)n(OCc3ccc(C(C)(C)C)cc3)c3ccccc3[n+]2[O-])c1	-27%	-3.8	-16	-21%	-14	-13
COc1ccc(C(C)C)cc1S(=O)(=O)Nc1ccccn1	?	-0.4	11	6%	1	-8
CCCCCNC(=O)N[C@H](C(=O)O)C(C)C	-22%	1.5	10	7%	7	0
COc1ccc(NC(=O)CSc2nnc(NC(=O)C3CCC3)s2)cc1	11%[15.4 µM]	-2.0	2	-22%	-1	0
O=C(c1ccco1)N1CCN(C(c2ccccc2Cl)c2nnnn2Cc2cccs2)CC1 (stereo not given)	-36%	-0.5	0	-18%	4	17
CCCn1c2ccccc2c2cnn(CC(=O)NCCCOC)c(=O)c21	-3%[15.4 µM]	-1.1	6	7%	-4	-6
Cc1cc(C)c(C)c(S(=O)(=O)NCCCn2ccnc2)c1C	-23%	4.6	0	1%	-1	-2
C/C(=N/NC(=O)CN1CCN(S(=O)(=O)c2ccc(C)cc2)CC1)c1cccc(O)c1	-3%	1.1	-11	-9%	3	-14
O=C(NCc1ccccc1F)C1CCCN1S(=O)(=O)c1ccc(Cl)cc1 (stereo not given)	1%	-1.4	16	-1%	-4	1
CCS(=O)(=O)Nc1cc(OC)c(OC)cc1Cc1nccc2cc(OC)c(OC)cc12	-8%[15.4 µM]	1.5	-4	-15%	-5	2
C=CCNc1cnn(-c2ccc(C)cc2)c(=O)c1Sc1ccc(C)cc1	4%	-6.4	11	-29%	-2	1
Cc1ccc(NC(=O)CSc2nc3ccccc3nc2N2CCCC2)cc1	-43%	-5.9	37	-6%	13	-4
CCOc1ccc(NC(=O)c2c3c(nc4ccccc24)CCC3)cc1	?	0.0	-2	6%	-7	-8
CCCN1C(=O)C(Cc2nc3ccccc3c(=O)n2-c2ccccc2)c2cc(C)ccc21 (stereo not given)	-18%	-4.0	-28	-7%	-5	-9
COC(=O)Cn1c(CN2CCOCC2)nc2c1c(=O)[nH]c(=O)n2C	3%	-2.4	-2	11%	4	-8
CCOC(=O)CN1C(=O)C(O)(CC(=O)c2ccc3c(c2)CCCC3)c2ccccc21 (stereo not given)	-94%[inhibitor]	-1.7	-7	-20%	-18	16
CCCCCOC(=O)CSc1nnc(-c2ccccc2)c(=O)[nH]1	5%	-0.1	2	-9%	11	-10
CC(=O)N[C@@H](Cc1c[nH]c2ccccc12)C(=O)OCc1cc(C(F)(F)F)cc(C(F)(F)F)c1	/	-5.8	-18	-9%	-2	-5
O=C(N/N=C\C1CC=CCC1)c1ccc(Br)o1 (stereo not given)	?	-2.1	-3	12%	6	-7
Cn1ncc2c(Nc3ccccc3Cl)nc(Nc3ccccc3Cl)nc21	14%	-0.5	-2	-18%	3	-3
O=C(Nc1ccccc1O)c1ccc2c(c1)C(=O)N(Cc1ccco1)C2=O	-14%	1.4	0	-2%	3	-5
COCCSc1ccccc1C(=O)N1CCC(Cc2ccccc2)CC1	-46%[inhibitor]	2.2	-6	3%	-21	-3
N#CC1CCN(C(=O)c2ccc3c(Cl)c4c(nc3c2)CCCC4)CC1	?	5.4	/	2%	1	-8
O=c1[nH]c2ccccc2nc1NCCN1CCOCC1	-1%	1.1	4	4%	0	-9
O=C(CSc1nnnn1C1CCCCC1)N1c2ccccc2Sc2ccccc21	-28%	-2.5	-7	6%	-2	-9
O=C(CCC(=O)Nc1nnc(C2CCCCC2)s1)Nc1ccccc1	-29%	-6.1	-5	25%	0	-4
CN1CCN(C(=O)c2ccc(CNS(=O)(=O)c3cccc(Cl)c3)cc2)CC1	-1%	0.8	5	-2%	1	-11
NS(=O)(=O)c1ccc(NC(=O)C2Cc3ccccc3C(=O)O2)cc1 (stereo not given)	16%	2.2	-2	8%	-3	-2
O=C(c1oc2ccccc2c1N1CCCCC1)N1CCCCC1	22%	-3.1	-3	-14%	-3	-1
O=C(O)C(c1ccccc1)N1C(=O)/C(=C\c2ccc(-c3ccc(Br)cc3)o2)SC1=S (stereo not given)	9%	-15	/	-15%	6	-7
COc1ccc(CNC(=O)C(C)OC(=O)c2cccc(N(C)C)c2)cc1 (stereo not given)	-3%	1.9	-2	2%	-8	0
CCn1c(=O)c(CCC(=O)N2CCOCC2)c(C)c2c(C)nn(-c3ccccc3)c21	-9%	4.9	-3	?	-3	3
C=C(C)C(=O)OCC(=O)NCc1ccccc1	-16%[15.4 µM]	-2.7	-4	5%	5	6
COc1ccccc1CNC(=O)CN(C)S(=O)(=O)c1ccc2c(c1)n(C)c(=O)c(=O)n2C	?	-2.2	1	4%	-1	-3
Cc1cccc(NC(=O)CS(=O)(=O)c2c[nH]c3ccccc23)c1C	-19%	-0.3	3	-4%	4	-5
CC1CN(CCCCOc2ccc(C(C)C)cc2)CC(C)O1 (stereo not given)	?	-3.7	52	8%	19	-14
COc1ccccc1NC(=O)N1CCN(Cc2ccc3c(c2)OCO3)CC1	-4%[15.4 µM]	-3.1	-2	2%	-1	-5
Cc1ccc(-c2csc(NC(=O)c3ccc4c(=O)n5c(nc4c3)CCCCC5)n2)cc1	-32%[inhibitor]	-0.4	0	-7%	5	2
CC(C)(C)c1ccc(CC(=O)N2CCC2(C)C(=O)NS(=O)(=O)c2ccccc2C(F)(F)F)cc1 (stereo not given)	/	-3.3	4	/	-3	-3
CC1=C(C(=O)OCc2ccc3c(c2)OCO3)C(c2ccccc2)NC(=O)N1 (stereo not given)	-27%	?	6	-12%	-5	53*
Cc1ccc(CSC2=CS(=O)(=O)c3ccccc3N2)cc1	?	-2.8	4	-12%	-4	0
S=C(NCCCN1CCOCC1)N1CCN(c2nc(-c3ccc(Cl)cc3)cs2)CC1	?	0.6	-22	-2%	-19	-2
CC1(C)CC(=O)c2cn3nc(C(F)(F)F)nc3nc2C1	1%	-3.6	7	-9%	6	-10
O=C(NCc1ccccn1)Nc1ccc(F)cc1	-43%[inhibitor]	0.1	8	6%	4	-10
COc1ccc(/C=C2\Oc3cc(OCC(=O)N4CCC(C(=O)O)CC4)ccc3C2=O)c(OC)c1OC	/	-2.9	1	4%	3	-18
OCCC1CN(Cc2cnc(-c3ccccc3)s2)CCN1Cc1ccccc1 (stereo not given)	-4%[15.4 µM]	1.9	-9	-3%	-6	-15
Cc1cc(C(=O)Nc2cc(C(F)(F)F)ccc2N2CCOCC2)no1	0%	-1.4	11	-5%	5	-7
Cc1csc(NC(=O)c2cc3ccccc3o2)n1	-2%	-2.5	-9	-6%	-1	-1
CCOC(=O)c1csc(NNC=O)n1	?	-2.5	4	7%	6	-2
O=C(OCc1ccccc1)N1CCC2CC1c1cc(/C=C/CCCSc3ncccn3)ccc12 (stereo not given)	0%	-12	0	/	7	-6
COC(=O)COc1coc(CN2CCN(c3cccc(Cl)c3)CC2)cc1=O	8%	-1.2	6	-9%	15	0
NC(=NCc1ccccc1)c1cccc([N+](=O)[O-])c1	-44%[inhibitor]	4.0	3	4%	2	-6

# New compounds follow:
canonical_smiles	gsp agonist	D2 ag	CtBP-E1A inh	gsp antag	Six1-Eya2 inh	D2 PAM
Cc1ccc(CNC(=O)c2nn(C)c(C)c2[N+](=O)[O-])cc1	-3%	-4.7	-2	3%	-5	-13
COc1ccc(NC(=O)Cc2c(F)cccc2Cl)cc1	-49%[inhibitor]	1.2	5	18%	-6	-7
CC(C)Oc1ccc(C(=O)OCC(=O)NC(=O)NC2CCCC2)cc1	-27%	-7.1	-3	-1%	1	-4
COc1ccc(Cc2nnc(NC(=O)Nc3ccc(F)cc3)s2)cc1	12%	0.0	/	-8%	1	1
CCOC(=O)C1(Cc2ccccc2)CCCN(C(=O)C=C(C)C)C1 (stereo not given)	-48%[inhibitor]	5.4	-1	-11%	2	-3
O=C(OCc1ccc([N+](=O)[O-])cc1)C1CC(=O)N(c2ccccc2)C1 (stereo not given)	4%	-1.8	-1	-1%	2	-1
O=C(c1ccc(F)cc1)N1CCCCC(Sc2nnnn2-c2ccccc2)C1=O (stereo not given)	27%	-0.3	-3	-3%	9	-6
CC(=O)N1CCN(c2ccc([N+](=O)[O-])c(NCC3CCCO3)c2)CC1 (stereo not given)	?	-1.5	-4	-9%	4	3
O=C(Nc1c2c(nn1-c1ccccc1)CS(=O)(=O)C2)c1ccccc1C(F)(F)F	41%	-4.3	-4	1%	6	-6
COc1ccc(Cl)cc1C1=CC(=O)C[C@H](c2ccc(F)cc2)C1	/	0.7	5	-9%	7	-2
C/C(=N\NC(=O)Cn1c(C)nc2ccccc21)c1cccs1	4%	-6.2	0	-2%	-5	-23

# Single records, as listed above. Values in the order: gsp agonist | D2 ag | CtBP-E1A inh | gsp antag | Six1-Eya2 inh | D2 PAM
# `COc1ccc(NC(=O)Cc2c(F)cccc2Cl)cc1` in the list: -49%[inhibitor] | 1.2 | 5 | 18% | -6 | -7
# `O=C(c1ccc(F)cc1)N1CCCCC(Sc2nnnn2-c2ccccc2)C1=O` (stereo not given) in the list: 27% | -0.3 | -3 | -3% | 9 | -6

# Individual results from the entries so far:
# Reading of COc1ccc(Cc2nnc(NC(=O)Nc3ccc(F)cc3)s2)cc1 in Six1-Eya2 inh: 1
# Reading of Cc1ccc(-c2csc(NC(=O)c3ccc4c(=O)n5c(nc4c3)CCCCC5)n2)cc1 in Six1-Eya2 inh: 5
